# Assay outcomes (PubChem)
# Ecoli growth: E. coli growth inhibition, primary screen, OD600; hit rate 0.21% among 330,000; Escherichia coli growth, 23 h; hits give low values; OD600 absorbance (concentration not given with the values);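 active = OD600 absorbance below the run mean of sample wells minus 3.6 SD, in any replicate, cut at about 0.56 in these data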;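 also: stock transfer was 300 nL into about 60 µL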
# UCH37 inh: inhibitors of human UCH37 deubiquitinase, primary screen, biochemical, Ub-AMC cleavage, fluorescence. hit rate 0.33% among 330,000. purified proteasome/UCH37. Ubiquitin carboxyl-terminal hydrolase isozyme L5 (Homo sapiens), Q9Y5K5. inhibition, % (concentration not given with the values);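 active = mean of two replicates above 20%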;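 also: 0% = compound-free wells with enzyme and 100% = wells lacking proteasome; stock transfer was 100 nL into about 20 µL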
# Target sequence (Q9Y5K5 whole entry, looked up): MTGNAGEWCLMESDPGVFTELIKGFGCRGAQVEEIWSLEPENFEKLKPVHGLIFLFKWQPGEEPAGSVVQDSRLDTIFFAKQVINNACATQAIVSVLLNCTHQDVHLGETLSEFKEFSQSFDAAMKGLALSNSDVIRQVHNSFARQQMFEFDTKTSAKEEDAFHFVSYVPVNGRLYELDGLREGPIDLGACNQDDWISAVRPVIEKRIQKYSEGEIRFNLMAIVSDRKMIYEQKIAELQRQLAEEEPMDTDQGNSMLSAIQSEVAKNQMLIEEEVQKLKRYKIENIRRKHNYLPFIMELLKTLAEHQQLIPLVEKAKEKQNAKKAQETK
#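 system = Proteasome-associated human UCH37 deubiquitinase | amount = 0.15 nM proteasome as dispensed | medium = pH 7.4 Tris-HCl (50 mM) with ovalbumin, ATP-MgCl2, DTT | incubation = 30 min preincubation with enzyme, 25 min cleavage at room temperature | detection = AMC fluorescence 355/460 nm | read-out basis = percent inhibition | controls = no-proteasome and no-compound wells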
# T cruzi inh: inhibitors of intracellular T. cruzi growth, primary screen, luminescence, NIH3T3 host cells; inhibition, % (no concentration beside the values); AID 1885, 2009; hit rate 1.4% among 300,000; T. cruzi beta-gal in NIH3T3, 90 h;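 active = mean inhibition across valid replicates above about 55%, limit read from the data; inconclusive = mean below that limit but half or more replicates reach it; inactive = mean below it, under half of replicates reach it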;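 also: signal also drops with host cell toxicity which is not excluded here; 0% = plate median of DMSO wells and 100% = zero luminescence signal; higher percent means less beta-gal luminescence so fewer parasites; stock transfer was 50 nL into about 50 µL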
# Beta apoptosis: inhibitors of cytokine-induced beta cell apoptosis, primary screen, luminescence | hit rate 0.8% among 300,000 | protection from apoptosis, % (concentration not given with the values) | INS-1E cytokine-induced death, ATP luminescence, 48 h; percent of positive-control rescue, neutral wells zero;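 active = all replicates at 75% or more, or half of them and the mean; inconclusive = half reach 75% but not the mean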;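 also: 0% = cytokine-treated negative control wells and 100% = positive control rescue; higher means more ATP so stronger rescue from cytokine killing; wells of about 40 µL received 100 nL stock; the first replicate is given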
# rRNA inh HTS: reduced GFP signal of wild-type E. coli, primary screen, bacterial rRNA inhibitor project, GFP/RFP fluorescence, OD600, single point | E. coli WT GFP vs humanized-ribosome RFP mutants, 24 h; hits give low values; DMSO median 0, no signal -100 | GFP signal change (wild-type ribosome), % (no concentration beside the values) | hit rate 1.6% among 350,000 | AID 720706, 2013;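 active = significant combined selectivity score with lowered wild-type GFP, culture density cut under 30%, mutant RFP and density less affected; inactive = any of these conditions unmet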; also: one replicate is shown; some compounds called inactive have numbers as strong as hits
# FGF22 binding: binders of human FGF22 protein, primary screen, FGF22 synaptogenesis inhibitor project, biophysical, thermal shift, single point; recombinant FGF22 thermal shift, SYPRO orange fluorescence; percent of sucrose octasulfate shift, DMSO zero; calls only at 9.99 µM; hit rate 1.5% among 340,000;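 active = melting point raised past a set limit in the mean and every replicate; inconclusive = no clear call; three in four hits are not shown here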
# Target sequence (Q9HCT0 whole entry, looked up): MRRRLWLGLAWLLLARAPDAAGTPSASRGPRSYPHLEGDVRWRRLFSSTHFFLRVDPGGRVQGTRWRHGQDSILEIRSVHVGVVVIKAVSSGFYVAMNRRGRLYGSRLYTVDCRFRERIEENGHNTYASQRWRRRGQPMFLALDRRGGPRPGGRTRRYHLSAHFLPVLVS
# MLL AF4-AF9 inh: inhibitors of AF4 peptide binding to AF9, primary screen, biochemical, AlphaScreen, biotin-AF4 peptide, FLAG-AF9, single point. Protein AF-9 (Homo sapiens), P42568. inhibition, % at 10 µM. hit rate 0.47% among 350,000;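 active = every replicate reaching a set inhibition limit, whatever the replicate mean, cut at about 25% in these data; inconclusive = mean inhibition reaches that limit but some replicates miss it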;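 also: 0% = plate neutral control median and 100% = total signal loss; the record names both 10 and 1 µM as test concentration; the first replicate is given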
# Target sequence (P42568 whole entry, looked up): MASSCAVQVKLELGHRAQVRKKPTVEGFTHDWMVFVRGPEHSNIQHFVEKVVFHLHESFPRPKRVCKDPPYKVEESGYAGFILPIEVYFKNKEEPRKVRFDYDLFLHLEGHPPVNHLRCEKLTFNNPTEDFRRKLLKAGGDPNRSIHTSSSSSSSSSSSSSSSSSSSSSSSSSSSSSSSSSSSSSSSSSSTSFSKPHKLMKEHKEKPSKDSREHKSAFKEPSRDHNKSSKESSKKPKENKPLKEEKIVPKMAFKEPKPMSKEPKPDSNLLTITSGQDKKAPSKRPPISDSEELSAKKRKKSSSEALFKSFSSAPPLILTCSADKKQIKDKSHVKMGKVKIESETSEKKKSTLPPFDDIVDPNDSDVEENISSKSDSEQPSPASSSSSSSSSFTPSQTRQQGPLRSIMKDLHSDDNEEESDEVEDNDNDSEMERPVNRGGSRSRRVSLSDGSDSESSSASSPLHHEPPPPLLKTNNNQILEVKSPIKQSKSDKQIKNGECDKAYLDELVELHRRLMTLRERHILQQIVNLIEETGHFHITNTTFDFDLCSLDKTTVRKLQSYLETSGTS
# A1 inh: caspase 3/7 activation in MEF A1-2A-BIM cells, primary screen, A1 inhibitor project, cell-based, luminescence, HTS; Caspase-Glo 3/7 luminescence, 3 h; percent of clofoctol response, vehicle zero; caspase activation, % (test concentration not listed); hit rate 0.066% among 330,000;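 active = over half of replicate activation scores above 10%, or exactly half above 10 with the replicate mean above 10; inconclusive = replicate mean below 10 yet half the replicates above 10; inactive = over half of replicates below 10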;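 also: wells of about 30 µL received 50 nL stock; many hits fall short of the cut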
# rRNA inh HTS OD600: also measured in rRNA inh HTS; calls as there; OD600 change, %; measured here: OD600 growth;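 optical density of the mix in the first replicate; 0 = DMSO median and -100 = no signal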
# rRNA inh HTS RFP: second read-out of rRNA inh HTS, no call of its own (marks repeat the call); RFP signal change, %; measured here: RFP humanized mutant strains;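 first replicate; 0 = DMSO median and -100 = no signal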
# * hit, by the source's call; i = inactive; u = inconclusive; x = not tested or not shown; & = joins results of further samples. This is a subset; count on the stated rates, not on these rows.
smiles	Ecoli growth	UCH37 inh	T cruzi inh	Beta apoptosis	rRNA inh HTS	rRNA inh HTS OD600	rRNA inh HTS RFP	FGF22 binding	MLL AF4-AF9 inh	A1 inh
Cn1c(=O)c(C(=O)COc2ccc(F)cc2Cl)c(N)n(Cc2ccccc2)c1=O	0.67	-2.5	13	0	6	5	1.5	i	4.7	1.2
O=C(Cn1ccc2ccccc2c1=O)NCCC(=O)N1CCN(C(=O)c2ccco2)CC1	0.64	-0.8	x	0	x	x	x	x	x	0.4
CCOc1cc(C2C(C(=O)c3ccc(C)o3)=C(O)C(=O)N2CCc2ccccc2)ccc1O (centres undefined)	0.73	8.3	-11	-2	x	x	x	x	x	0.4
CCn1c(SCC(=O)NCc2ccco2)nc2c1c(=O)n(C)c(=O)n2C	0.66	0.5	-12	-4	x	x	x	x	x	1.6
O=C(CSc1ccccc1)Nc1ccccc1C(=O)N1CCCC1	0.71	1.6	-4	-1	7	22	1.7	i	-13	0.7
Cc1nc2nc(-c3ccc(Cl)cc3)[nH]n2c(=O)c1Cc1ccccc1	0.73	1.5	3	3	x	x	x	x	x	2.6
c1ccc(CNCCC(Cc2ccccc2)c2ccco2)cc1 (centres undefined)	0.63	4.0	2	-11	x	x	x	i	6.0	-1.3
O=C(NC1CC1)C1=C[C@@H](c2ccccc2)C[C@@H](OCc2ccc(CO)cc2)O1	x	4.5	-4	4	-4	0	-5.8	i	-1.9	-0.5
Cc1cccc(CCN2C(N(C)C)=NC[C@@H]2CC(C)C)c1	x	33*	x	-1	2	-4	-4.8	i	2.1	-1.1
Nc1nonc1OCCc1ccccc1	0.68	1.5	2	1	x	x	x	x	x	0.7
CCN(CC)S(=O)(=O)c1ccc(N2C(=O)CC2(/C=C/c2ccccc2)C(=O)NC2CCCC2)cc1 (centres undefined)	0.7	0.2	9	5	11	11	-1.3	i	-4.5	0.4
CCC1(C)Cc2c(sc3nc(SC)nc(NCCN(C)C)c23)CO1 (centres undefined)	0.71	-3.6	-11	3	x	x	x	x	x	-0.4
COc1ccccc1CN1CCN(S(=O)(=O)c2ccccc2)CC1	0.66	-0.3	-5	-7	x	x	x	x	x	0.9
Cc1nc2ccccc2nc1OCc1ccccc1	0.68	-0.2	6	-7	-30	10	13	i	1.2	0.0
N=C(N)Sc1nc(N2CCCCC2)nc(N2CCCCC2)n1	0.66	0.7	2	-1	9	7	-1.3	i	-0.3	-0.3
CC1(C)CC(=O)C/C(=N\NC(=O)C2CC2c2ccccc2)C1 (centres undefined)	x	x	-3	-3	4	-4	56	i	1.0	0.0
COc1cccc2cc(C(=O)NCc3ccc(Cl)cc3)c(=O)oc12	0.66	-11	-9	-5	0	2	-1.5	i	-30	-0.9
CC(=O)NCC(=O)OC(C(=O)c1ccccc1)c1ccc(Cl)cc1 (centres undefined)	0.66	4.5	-22	2	x	x	x	x	x	-0.4
Cc1cccc(C)c1NC(=O)NCCSc1snnc1C	0.71	3.6	-6	-2	15	10	-2.2	i	-2.8	-0.1
O=C1OCC2=C1C(c1ccc(Cl)cc1)CC(=O)N2c1ccc(F)cc1 (centres undefined)	0.71	0.4	-1	-3	-10	-8	-1.1	i	-1.8	0.5
Cc1ccc(CN2CCN(Cc3cc4ccccc4o3)CC2CCO)cc1 (centres undefined)	0.67	-0.2	26	-8	-15	-8	-3.6	i	6.0	0.6
Clc1cccc(-c2noc3ncnc(Nc4ccc5c(c4)OCO5)c23)c1	0.69	4.0	-3	8	-22*	-17*	7.3*	i	0.4	2.5
CC1(C)CC(=O)c2cc(C(=O)NCc3ccco3)c(=O)n(-c3ccccc3)c2C1	0.67	1.0	15	-2	x	x	x	x	x	0.5
O=c1oc2c3c4c(cc2c(C(F)(F)F)c1CCN1CCOCC1)CCCN4CCC3	0.67	-1.8	2	x	x	x	x	x	x	-0.5
COc1ccc(CN(C)C(=O)c2ccc(OCC(=O)Nc3cccc(C(F)(F)F)c3)c(OC)c2)c(OC)c1	0.7	0.2	17	12	-5	-11	2.7	i	8.1	-0.5
CCSc1nnc(NC(NC(=O)c2ccco2)(C(F)(F)F)C(F)(F)F)s1	0.76	-1.8	-14	-5	x	x	x	x	x	0.6
N#CCC(=O)N/N=C/c1cn(Cc2ccc(Cl)c(Cl)c2)c2ccccc12	x	x	7	x	x	x	x	i	-0.3	0.9
Cc1cc(C)c(S(=O)(=O)NCC(=O)NCc2ccco2)c(C)c1	0.68	0.3	6	-4	12	11	1.9	i	-1.0	-0.1
CCOCCOC(=O)C1=C(C)N(C)C(=O)NC1c1cc(Cl)c(O)c(OC)c1 (centres undefined)	0.64	3.4	2	-2	x	x	x	x	x	-1.3
CN(C)CCN(C(=O)c1ccc2c(c1)CCCC2)c1nc2cc3c(cc2s1)OCCO3	0.69	7.0	43	-1	1	-43	1.0	i	37*	-1.0
CCOC(=O)c1ccc(NC(=O)CSc2nnc(-c3cccs3)n2CC)cc1	0.75	-5.0	8	0	x	x	x	x	x	-2.0
O=C(COc1ccc(Cl)cc1)Nc1ccc2[nH]ncc2c1	0.62	4.3	-7	5	4	0	0.2	x	-4.1	-1.8
COc1ccc(/C=C2\SC(=S)N(C(Cc3ccccc3)C(=O)O)C2=O)cc1 (centres undefined)	0.69	7.7	-10	x	-43	-73	-12	i	-3.4	x
N#C/C(=C\c1c(N2CCN(c3ccccc3)CC2)nc2ccccn2c1=O)C(N)=O	0.68	-131	2	0	-1	-2	2.2	i	2.7	1.1
CN1C[C@@H]2C[C@@H](C3=Cc4cc(Cl)ccc4OC3)N3CCC[C@@]23C1=O	0.63	-1.8	-11	-8	-8	-12	0.4	i	2.7	-0.4
O=C(CSc1nc2cc(Cl)ccc2o1)N1CCOCC1	0.78	1.3	0	-7	x	x	x	x	x	0.1
Cc1cccc(NC(=S)N(CCCN2CCCC2)Cc2cccn2Cc2ccc(Cl)cc2)c1	0.66	3.1	37	17	-2	-12	13	i	u	0.3
CC(=O)OC1CCC2(C)C(=CCC3C2CCC2(C)C3CC3OC4(CCC(C)CN4)C(C)C32)C1 (centres undefined)	0.68	3.8	13	x	-5	-3	-14	i	-8.6	x
CCOC(=O)CC1CCCCN1Cc1cn(C)nc1-c1ccc2c(c1)OCCO2 (centres undefined)	0.7	-0.6	8	-2	7	2	0.9	i	-0.9	-0.5
Cc1ccc(OC(=O)CCN2C(=O)c3ccccc3C2=O)cc1C	0.65	3.5	1	x	-26	-24	-1.5	i	-3.2	-0.1
CC(=O)c1cnn(-c2cc(Oc3ccccc3C)ncn2)c1C	0.66	-0.3	7	1	x	x	x	x	x	0.6
Cc1ccc(NC(=O)C2CCCN2C(=O)c2cccs2)c(C)c1 (centres undefined)	0.68	0.6	-23	4	4	11	-2.1	x	1.6	0.3
O=C(Nc1cccc(C(=O)O)c1)/C(=C\c1ccco1)NC(=O)c1ccccc1Cl	0.66	7.2	-5	3	26	15	2.6	i	-7.0	0.6
FC(F)c1nnc2ccc(Cl)nn12	0.64	-2.8	2	-8	13	10	1.2	i	-2.2	0.6
O=C(c1cnn(C(=O)c2ccccc2F)c1)c1ccccc1O	0.64	-21	x	-3	5	5	-1.2	i	0.5	0.0
O=C(NNC(=S)Nc1ccccc1)c1cc(-c2cccnc2)nc2ccccc12	0.71	3.8	-12	10	-4	12	0.0	i	4.2	0.0
CCCN1CCN(CCCNC(=O)CN2C(=O)c3cccnc3Oc3ccc(C)cc32)CC1	0.68	2.1	2	2	17	14	2.6	i	2.2	-0.6
Cc1cc(S(=O)(=O)NCCC2=CCCCC2)ccc1Br	0.59	0.9	-6	-2	-43	-74	1.5	i	-3.2	0.9
Cn1c(=O)c2c(nc(NCCO)n2C)n(C)c1=O	0.71	1.9	-8	-7	x	x	x	x	x	1.0
Cn1nccc1C(=O)NC1CCCc2c1cnn2-c1ccc(C(C)(C)C)cc1 (centres undefined)	0.7	-3.1	-6	116*	-1	-1	-1.1	i	0.8	1.8
CCc1c(C)nc(SCCOc2ccc(OC)cc2)[nH]c1=O	0.7	7.4	2	x	-5	-1	1.6	i	-5.4	0.1
Fc1ccc(-c2nnc(-c3ccc(Cl)cc3Cl)o2)cc1	0.79	1.7	16	0	5	6	7.4	i	-73	-5.8
NS(=O)(=O)c1ccc(NCCCn2ccnc2)c([N+](=O)[O-])c1	0.68	3.0	-1	-1	2	5	-1.0	i	-0.3	0.6
CN1CCN(c2ccc(NC(=O)c3ccc4c(c3)OCO4)cc2)CC1	0.71	2.2	5	-8	x	x	x	x	x	-2.8
COC(=O)[C@H]1[C@H]2C[C@H]3c4[nH]c5ccccc5c4CCN3C[C@@H]2CC[C@@H]1O	x	-2.2&1.9	-12&3	1&-1	x	x	x	i	1.8&11	-0.9&-0.1
Cc1ccc(S(=O)(=O)N2CCCCC2)cc1C(=O)N1CCCCCC1	0.71	2.7	x	-6	1	-9	2.0	i	-2.5	1.7
CN1CCN(CC(=O)Nc2ccccc2Sc2ccccc2)CC1	0.68	0.6	33	x	9	14	-1.0	i	1.3	-0.2
Cc1ccc(C(=O)NCC(=O)OCC(=O)c2ccc3c(c2)NC(=O)CO3)cc1C	0.68	5.2	-5	-6	10	11	-1.0	i	-1.8	-0.3
CCNC(=S)N1CCN(c2ccc([N+](=O)[O-])cc2)CC1	0.72	12	-1	x	x	x	x	x	x	0.3
Cc1ccc(S(=O)(=O)N/N=C/c2cccc3c2OCCO3)cc1	x	x	-4	-6	x	x	x	i	2.9	-0.6

# (next part)
smiles	Ecoli growth	UCH37 inh	T cruzi inh	Beta apoptosis	rRNA inh HTS	rRNA inh HTS OD600	rRNA inh HTS RFP	FGF22 binding	MLL AF4-AF9 inh	A1 inh
CCOC(=O)N1CCN(S(=O)(=O)CCNC(=O)c2cccc(OC)c2)CC1	0.61	-0.8	-9	-1	12	5	2.7	i	-0.8	-0.3
O=C(ON=C1CCN(S(=O)(=O)c2ccccc2)CC1)c1ccc(Cl)cc1	0.73	3.1	1	-1	x	x	x	x	x	0.3
CCOc1ccc(S(=O)(=O)N2CCOCC2)cc1NS(=O)(=O)c1ccc(OC)c([N+](=O)[O-])c1	0.7	4.7	-2	0	1	8	-1.6	i	1.6	-1.5
COc1ccc(-c2nnc(SCc3cccc(C#N)c3)o2)cc1	0.64	0.7	12	0	2	1	0.5	i	-2.9	0.0
